# PMP22 txn = Cell-based coincidence reporter assay to measure PMP22 gene transcription in S16 Pmp22-F2sN cells - Primary screen | S16 Pmp22-F2sN Schwann cells (luciferase reporters placed in the Pmp22 gene), FLuc/NLuc coincidence luminescence, 24 h | Potency, µM (doses to about 57.5 µM), for inactives: top-dose activity change, negative = inhibition, usual class: inhibitors | 43,000 compounds, 2% hits | AID 1508649, 2021; active = clear falling dose curves in both reporters; inconclusive = both reporters move, but less clearly or upward; inactive = either reporter flat; the % is the NLuc reporter signal; note: % is set by controls: 0 for no effect and ±100 for the full control effect; some results filed as inactive show a strong effect at the top dose
#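 Rat S16 Pmp22-F2sN cells, 500-1,000/well in phenol red-free DMEM + 10% FBS, compound-treated 24 h (37C, 5% CO2). Luminescence: FLuc read, Stop&Glo added, NLuc read.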
# HTT promoter inh = Primary qHTS for Identification of Small Molecule Inhibitors of Huntingtin Promoter Activity. HEK293 HTT promoter firefly luciferase reporter (activity 0% = vehicle and -100% = no light), 24 h. Potency, µM (doses to about 57.5 µM), without a hit: top-dose activity change, negative = inhibition, actives largely listed as inhibitors. 48,000 compounds, 0.93% hits; active = well fitted inhibition curve with a large enough effect; inconclusive = small, poorly fitted or top-dose-only effect; inactive = no such curve, though single readings can be large or run the other way; note: nearly all actives have a fitted effect of over 50% in size
#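 Firefly luciferase readout (Dual-Glo, 10 min RT) after 24 h, 37 °C compound exposure (final up to 57.5 uM) of HEK293 reporter cells cultured 24 h beforehand; PTC124 at 50 uM final as control inhibitor; activity scaled vehicle 0%, zero RLU -100%.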
# Active calls of the source: *; ? = inconclusive; . = not tested or not shown; & = joins results of further samples; [ ] = dose if it differs, or a comment. Potency is the fitted concentration of half-maximal effect. A portion of the library, so the mix of outcomes need not match the whole.
smiles | HTT promoter inh | PMP22 txn
C/C(=N\O)[C@@H](C)NCC(C)(C)CN[C@H](C)/C(C)=N/O | -6% | .
O=C(CCCl)NCCc1ccccc1 | 9% | .
NS(=O)(=O)c1cc2c(cc1C(F)(F)F)NC(Cc1ccccc1)NS2(=O)=O (stereo not drawn) | 9% | .
CCOC(=O)[C@H](CCc1ccccc1)N[C@@H](C)C(=O)N(CC(=O)O)C1Cc2ccccc2C1 | -8% | .
CCCOc1ccccc1-c1nc2n[nH]nc2c(=O)[nH]1 | -3% | .
CN(C)CC=CC(=O)Nc1cc2c(Nc3ccc(F)c(Cl)c3)ncnc2cc1O[C@H]1CCOC1 | ? | .
O=C(Nc1ccccc1)Nc1ccc(-c2ccc(C(=O)[C@H]3CCC[C@H]3C(=O)O)cc2)cc1 | 21% | .
O=C1NCC2(CCN(CCc3ccccc3)CC2)O1 | 10% | .
NC(=O)n1c(O)c(C(=O)c2cccs2)c2cc(Cl)ccc21 | ? | .
COc1cc2nc(N3CCN(C(=O)C4COc5ccccc5O4)CC3)nc(N)c2cc1OC (stereo not drawn) | 6%&10% | .
CN1CCC(COc2cnc(-c3cccc(Cn4nc(-c5cccc(C#N)c5)ccc4=O)c3)nc2)CC1 | ? | .
COc1nc(C)nc(Cl)c1NC1=NCCN1 | -2%&9% | .
Fc1ccc(C(c2ccc(F)cc2)N2CCNCC2)cc1 | 4% | .
COc1cc(Nc2c(C#N)cnc3cc(OCCCN4CCN(C)CC4)c(OC)cc23)c(Cl)cc1Cl | ? | .
CNC(=O)c1cc(Oc2ccc(NC(=O)Nc3cc(C(C)(C)C)nn3-c3ccc4ncccc4c3)c(F)c2)ccn1 | -26% | .
CNC(=O)c1ccc(CSc2nc3ccncc3n2Cc2ccc(C)cc2)cc1 | -25% | -27%
O=C(Nc1ccc(Cl)cc1)Nc1ccc(Cl)c(C(F)(F)F)c1 | ? | .
C=CC1=C(C(=O)O)N2C(=O)[C@@H](NC(=O)C(=NO)c3csc(N)n3)[C@H]2SC1 | -2% | .
CCC[C@H](N[C@@H](C)C(=O)N1[C@H](C(=O)O)C[C@@H]2CCCC[C@@H]21)C(=O)OCC | 9% | .
CCOc1ccn(-c2ccc(F)cc2)c(=O)c1C(=O)Nc1ccc(Oc2ccnc(N)c2Cl)c(F)c1 | -9% | .
O=C1NC(=O)[C@@]2(CCOc3ccc(F)cc32)N1 | 8% | .
O=C(O)c1cn(C2CC2)c2cc(Cl)c(F)cc2c1=O | 12% | .
CCN(CC)CCOc1ccccc1C(=O)CCc1ccccc1 | -7% | .
COc1cc(N2CCC(N3CCN(C)CC3)CC2)ccc1Nc1ncc(Cl)c(Nc2ccccc2S(=O)(=O)C(C)C)n1 | ? | .
Cc1nnc(NS(=O)(=O)c2ccc(N)cc2)s1 | -7%&-2% | .
CC(NC(CCc1ccccc1)C(=O)O)C(=O)N1C(=O)N(C)CC1C(=O)O (stereo not drawn) | 9% | .
Cc1nc2c3ccccc3nc(NNC(=O)CCC(=O)N3CCN(c4ccccc4)CC3)n2n1 | -13% | -12%
CC(=O)Nc1nc(C)c(-c2ccc(Cl)c(S(=O)(=O)NCCO)c2)s1 | ? | .
O=C(O)COC(=O)Cc1ccccc1Nc1c(Cl)cccc1Cl | -4% | .
Cc1c(CN2CCN(S(C)(=O)=O)CC2)sc2c(N3CCOCC3)nc(-c3cnc(N)nc3)nc12 | ? | .
Cc1nn(CC(=O)NCCc2ccccc2)c(=O)c2c1sc1ccccc12 | -9% | -20%
CCNC(=O)/C=C/c1cccc(Br)c1 | 15% | .
CC(=O)[C@H]1CC[C@H]2[C@@H]3C[C@H](C)C4=CC(=O)CC[C@]4(C)[C@H]3[C@@H](O)C[C@]12C | -2% | .
Cc1oc(-c2cccc(Cl)c2)nc1Cn1c(SCc2ccccc2F)nc2ccncc21 | 9% | -117%
CN(C)c1nc(Cc2ccc(NC(=O)c3ccc(C(F)(F)F)cc3)cc2)nc(N(C)C)c1CC(=O)O | 1% | .
COc1cc(N)c(Cl)cc1C(=O)NC1CCN(CCCOc2ccc(F)cc2)CC1OC (stereo not drawn) | -12% | .
Cc1onc(-c2ccccc2Cl)c1C(=O)N[C@@H]1C(=O)N2[C@@H]1SC(C)(C)[C@@H]2C(=O)O | -1%&-1% | .
c1ccc2c(CC3=NCCN3)cccc2c1 | -2% | .
O=c1cc[nH]c(=O)[nH]1 | 0% | .
Nc1ccc(C(=O)Nc2ccccc2N)cc1 | 81%[activator] | .
CCCOC(=O)c1ccccc1 | -4% | .
CC(C)(C)c1cnc(CSc2cnc(NC(=O)C3CCNCC3)s2)o1 | ? | .
Cc1cnc(Nc2cccc(CN3CCOCC3)c2)nc1Nc1cccc(S(=O)(=O)NC(C)(C)C)c1 | -9% | .
C[C@H]1COc2c(N3CCN(C)CC3)c(F)cc3c(=O)c(C(=O)O)cn1c23 | 4% | .
CCOC(=O)c1cccc(N)c1 | 1% | .
CCCc1ccc(OCC(=O)N2CCN(C(=O)COc3ccc(CCC)cc3OC)CC2)c(OC)c1 | ? | .
O=C(O)[C@@H]1[C@H]2C[C@H]3c4[nH]c5ccccc5c4CCN3C[C@@H]2CC[C@@H]1O | 3% | .
O=C(O)CN1C(=O)c2cccc3cccc(c23)C1=O | 0% | .
COc1cc(C)c(Sc2cnc(NC(=O)c3ccc(CNC(C)C(C)C)cc3)s2)cc1C(=O)N1CCN(C(C)=O)CC1 (stereo not drawn) | ? | .
Cc1[nH]c(C=C2C(=O)Nc3ccccc32)c(C)c1CCC(=O)O | ? | .
CC(Oc1c(Cl)cccc1Cl)C1=NCCN1 (stereo not drawn) | 11% | .
C[C@]12CC[C@H]3[C@@H](CCC4=CC(=O)CC[C@@]43C)[C@@H]1CC[C@@H]2C(=O)CO | -12% | .
C[C@@H](NC(=O)c1ncnc(N)c1Cl)c1ncc(C(=O)Nc2cc(C(F)(F)F)c(Cl)cn2)s1 | -16% | .
Nc1cc(-c2ccncc2)c[nH]c1=O | 3% | .
COC(=O)c1cc(Cl)c(NC(C)=O)cc1OC | 15% | .
CN(C)CCN(Cc1ccsc1)c1ccccn1 | 2% | .
CC(=O)NCCCCCC(=O)O | 5% | .
CN(C)C/C=C(/c1ccc(Br)cc1)c1cccnc1 | 9% | .
O=C(O)[C@@H](O)[C@H](O)[C@H](O)[C@@H](O)C(=O)O | 6% | .
C#C[C@]1(OC(C)=O)CC[C@H]2[C@@H]3CCC4=C/C(=N/O)CC[C@@H]4[C@H]3CC[C@@]21CC | ? | .

# More structures
smiles | HTT promoter inh | PMP22 txn
CC(C)(C)NCC(O)COc1ccccc1OCC1CCCO1 (stereo not drawn) | 1% | .
CN1CCC(=C2c3ccccc3CCc3sccc32)CC1 | -11%&9% | .
CCCCC1CCC(CCCC(C)CCC(=O)O)CC1 (stereo not drawn) | -27% | -7%
CCNC(=O)Nc1ccc2ncc(Nc3ccc(C)cc3)nc2n1 | 12% | .
CC(=O)O[C@]1(C(C)=O)CC[C@H]2[C@@H]3C=C(Cl)C4=CC(=O)[C@@H]5C[C@H]5[C@]4(C)[C@@H]3CC[C@@]21C | ? | .
CC1(O)CC(c2nc(-c3ccc4ccc(-c5ccccc5)nc4c3)c3c(N)nccn23)C1 (stereo not drawn) | ? | .
CC(C)Cc1ccc(C(C)C(=O)O)cc1 (stereo not drawn) | -15%[25.2 µM] | .
FC(F)(F)c1ccc(Nc2nc3ccc(Oc4ccnc(-c5ncc(C(F)(F)F)[nH]5)c4)cc3[nH]2)cc1 | ? | .
COc1cc2c(Oc3ccc(-c4cnc(Nc5ccc(F)cc5)n(C)c4=O)cc3F)ccnc2cc1OCCCN1CCOCC1 | ? | .
CC1=NN(c2ccccc2)C(=O)C1 | 8%&0% | .
Cc1nc2c3ccccc3nc(NNC(=O)CCC(=O)N3CCN(c4cc(Cl)ccc4C)CC3)n2n1 | -11% | -2%
COc1ccc(-c2cc(=O)c3c(O)cc(O[C@@H]4O[C@H](CO[C@@H]5O[C@@H](C)[C@H](O)[C@@H](O)[C@@H]5O)[C@@H](O)[C@H](O)[C@@H]4O)cc3o2)cc1O | ? | .
CC(C)(C)c1cc(C(=O)O)c(NC(=O)Nc2ccc3[nH]ncc3c2)s1 | -4% | .
O=C(Cn1ccnc1[N+](=O)[O-])NCCO | 12% | .
CC(=O)N1C[C@H](O)C[C@H]1C(=O)O | 4% | .
O=C(c1cc(Cc2n[nH]c(=O)c3ccccc23)ccc1F)N1CCN(C(=O)C2CC2)CC1 | -20% | .
Nc1nc(Nc2ccc(S(N)(=O)=O)cc2)nn1C(=O)c1c(F)cccc1F | ? | .
CC(C)Cn1cnc2c1c(=O)n(C)c(=O)n2C | 5% | .
COc1ccc(NC(=O)Cn2ccn(-c3ccc(C)c(C)c3)c(=O)c2=O)cc1Cl | ? | -4%
CC(C)CC(=O)Nc1n[nH]c2c1CN(C(=O)C1CCN(C)CC1)C2(C)C | ? | .
CNC(=O)c1cccc(-c2ccc3c(N4CCOC[C@H]4C)nc(N4CCOC[C@H]4C)nc3n2)c1 | ? | .
COc1cc2c(cc1-c1c(C)noc1C)ncc1[nH]c(=O)n([C@H](C)c3ccccn3)c12 | -33% | .
CCN(CC)C(=O)Nc1ccc(OCC(O)CNC(C)(C)C)c(C(C)=O)c1 (stereo not drawn) | 7% | .
COC(=O)c1cccnc1 | -5% | .
N/C(=N\N=C\c1ccc(Cl)cc1)N/N=C/c1ccc(Cl)cc1 | 2% | .
Cc1cn([C@@H]2C[C@@H](O)[C@H](CO)O2)c(=O)[nH]c1=O | 0% | .
COc1cc(N2CCC(N3CCN(C)CC3)CC2)ccc1Nc1ncnc(Nc2ccccc2S(=O)(=O)C(C)C)n1 | ? | .
COc1ccc(CN(CCN(C)C)c2ccccn2)cc1 | 9% | .
C[C@@H]1[C@H](C)CC[C@]2(C(=O)O)CC[C@]3(C)C(=CC[C@@H]4[C@@]5(C)C[C@@H](O)[C@H](O)[C@@](C)(CO)[C@H]5CC[C@]43C)[C@@H]12 | -5% | .
O=S(=O)(O)c1ccc2nc(-c3ccccc3)[nH]c2c1 | 8% | .

# In a second layout: entries from further up.
CCCc1ccc(OCC(=O)N2CCN(C(=O)COc3ccc(CCC)cc3OC)CC2)c(OC)c1
  HTT promoter inh: ?
  PMP22 txn: .
O=C(O)[C@@H]1[C@H]2C[C@H]3c4[nH]c5ccccc5c4CCN3C[C@@H]2CC[C@@H]1O
  HTT promoter inh: 3%
  PMP22 txn: .

# (cont.)
smiles | HTT promoter inh | PMP22 txn
Cc1ccccc1C(C(=O)NC1CCCCC1)N(C(=O)CNc1ccc(C#N)cc1)c1cccc(F)c1 (stereo not drawn) | 7% | .
COc1cccc(CCc2ccccc2OCC(CN(C)C)OC(=O)CCC(=O)O)c1 (stereo not drawn) | -2% | .
O=C1N(c2ccccc2)c2ccccc2C1(Cc1ccncc1)Cc1ccncc1 | 5%&-3% | .
COc1cc2c(Oc3ccc4[nH]c(C)cc4c3F)ncnc2cc1OCCCN1CCCC1 | ? | .
Cc1cc2c(s1)Nc1ccccc1N=C2N1CCN(C)CC1 | 21%&2% | .
CC(C)n1cnc2c(NCCc3ccc(O)cc3)nc(-c3csc4ccccc34)nc21 | ? | .
CCCSS/C(CCO)=C(\C)N(C=O)Cc1cnc(C)nc1N | 1% | .
CCN1C[C@H](C)n2c(c(O)c3c(=O)n(Cc4ccc(F)c(Cl)c4)nc(C(=O)NC)c32)C1=O | 0% | .
COc1ccccc1OCC(O)COC(N)=O (stereo not drawn) | 5%&6% | .
CN1CCc2c(c3ccccc3n2Cc2ccc(C(=O)NO)cc2)C1 | ? | .
CCC1C(=O)OCC1Cc1cncn1C (stereo not drawn) | 5% | .
Cn1c(Nc2ccc(C(F)(F)F)cc2)nc2cc(Oc3ccnc(-c4ncc(C(F)(F)F)[nH]4)c3)ccc21 | ? | .
Cn1c(=O)c(-c2c(Cl)cccc2Cl)cc2cnc(Nc3cccc(C(=O)O)c3)nc21 | 20% | .
NS(=O)(=O)c1cc(C(=O)NN2C[C@H]3[C@H]4CCC(C4)[C@H]3C2)ccc1Cl | 12% | .
CC1c2ccccc2CN1NC(=O)c1ccc(Cl)c(S(N)(=O)=O)c1 (stereo not drawn) | -13% | .
Cc1ccccc1N=Nc1ccc(N=Nc2c(O)ccc3ccccc23)c(C)c1 | 2% | .
CCCCCCCC/C=C\CCCCCCCCN | 7% | .
OC1(c2ccc(Cl)c(C(F)(F)F)c2)CCN(CCCC(c2ccc(F)cc2)c2ccc(F)cc2)CC1 | ? | .
Cc1coc2c1C(=O)C(=O)c1c-2ccc2c1CCCC2(C)C | 5% | .
CC(=O)c1ccc(OCC(=O)N2CCCCC2)cc1 | 8% | .
CC(=O)O[C@]1(C(C)=O)CC[C@H]2[C@@H]3C=C(Cl)C4=CC(=O)[C@@H]5C[C@@H]5[C@]4(C)[C@H]3CC[C@@]21C | -7% | .
N=C(N=C(N)N)N1CCOCC1 | ? | .
CN(C)CCCN1c2ccccc2Sc2ccccc21 | -5% | .
COc1ccc(C(=O)Nc2nc3ccccc3n2CCOc2ccc(Cl)cc2)cc1 | 17% | -9%
